From PubChem BioAssay
2A StopGo – High Throughput Screening for Foot and Mouth Disease Virus Antivirals | human cells with a luciferase reporter of 2A StopGo recoding; control for the full effect not named in the record | Potency, µM (series often up to 57.9 µM), without a hit: at the top dose signal change, negative = less light | 1.2% of 410,000 active | AID 1159524, 2015; active = well fitted falling curve with a large enough effect; inconclusive = small, poorly fitted or top-dose-only effect; inactive = no such curve, though single readings can be large or run the other way; tested in HEK293T cells; also: % is scaled to controls: 0 for no effect and ±100 for the full control effect; nearly all actives have a fitted effect of over 45% in size; luciferase light after 4 h
NS1 function inh – qHTS Assay for Inhibitors of Influenza NS1 Protein Function; S. cerevisiae slowed by influenza A NS1, growth recovery by OD600; 0.4% of 270,000 active; Potency, µM (top dose mostly 46.1 µM), without a hit: at the top dose activity, positive = more growth; also: actives are rising curves; nearly all actives have a fitted effect of over 50% in size
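OD600 was taken as the measure of yeast growth restored by compound in an NS1-expressing S. cerevisiae strain. Cells had been washed out of glucose medium and diluted 1:100 into galactose -URA medium, pH 6.0.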
LASV entry inh – qHTS for Inhibitors of binding or entry into cells for Lassa Virus; Potency, µM (series often up to 37.9 µM), for the others: at the top dose activity change, negative = inhibition, hits mostly inhibitors; 1.2% of 300,000 active; Lassa virus pseudotype entry inhibition, cell reporter; control for the full effect not named in the record; active means well fitted inhibition curve with a large enough effect; inconclusive means small, poorly fitted or top-dose-only effect, or effect the other way; inactive means flat fitted curve, though single readings scatter; tested in HEK293 cells; also: % is scaled to controls: 0 for no effect and ±100 for the full control effect; nearly all actives have a fitted effect of over 50% in size; luciferase read-out
Cruzain inh Det – qHTS Assay for Promiscuous and Specific Inhibitors of Cruzain (with detergent); Potency, µM, without a hit: max response, negative = inhibition, most hits filed as inhibitors; purified cruzain, Z-FR-AMC fluorescence, 0.01% Triton; Cruzipain (Trypanosoma cruzi), P25779; 0.43% of 200,000 active; active = well fitted curve in the direction sought with a large enough effect; inconclusive = small, poorly fitted or top-dose-only effect, or another doubt; inactive = no such curve, though single readings can be large; an effect the other way counts as inactive or inconclusive;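 also: plate controls were neutral wells for no effect and buffer without enzyme for full effect; nearly all actives have a fitted effect of over 40% in size; top concentration of the series not given in the record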
Target sequence (P25779 123-467 limits assumed): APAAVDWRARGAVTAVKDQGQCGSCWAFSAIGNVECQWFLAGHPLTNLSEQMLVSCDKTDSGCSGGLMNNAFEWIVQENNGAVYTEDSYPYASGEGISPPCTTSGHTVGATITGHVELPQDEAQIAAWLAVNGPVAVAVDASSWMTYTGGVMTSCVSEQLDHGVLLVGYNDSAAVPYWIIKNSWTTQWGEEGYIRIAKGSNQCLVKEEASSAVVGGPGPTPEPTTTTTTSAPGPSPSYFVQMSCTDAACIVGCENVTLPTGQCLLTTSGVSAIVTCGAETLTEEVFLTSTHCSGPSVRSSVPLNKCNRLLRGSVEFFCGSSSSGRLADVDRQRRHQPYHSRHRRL
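In this qHTS format, compounds are incubated with 1.5 nM cruzain for 15 min at room temperature before 2 uM Z-FR-AMC is added. Release of AMC is followed at 360/450 nm, and progress is taken as the 60 s fluorescence difference.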
Cruzain noTriton – qHTS Assay for Promiscuous and Specific Inhibitors of Cruzain (without detergent); Potency, µM, inactives show max response, negative = inhibition, most hits filed as inhibitors; purified cruzain, Z-FR-AMC fluorescence, no detergent; 2.3% of 200,000 active; Cruzipain (Trypanosoma cruzi), P25779; active = well fitted curve in the direction sought with a large enough effect; inconclusive = small, poorly fitted or top-dose-only effect, or another doubt; inactive = no such curve, though single readings can be large; an effect the other way counts as inactive or inconclusive;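 also: plate controls were enzyme without inhibitor for no effect and buffer without enzyme for full effect; nearly all actives have a fitted effect of over 40% in size; top concentration of the series not given in the record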
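Purified cruzain at 1.5 nM, pre-incubated 15 min with compound at room temperature in 100 mM sodium acetate pH 5.5, 5 mM DTT, 0.00005% Triton X-100. Reaction started with 2 uM Z-FR-AMC; AMC fluorescence increase over 60 s gives rate.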
RE007 growth inh – qHTS Assay for Inhibitors of the HIV-1 protein Vpr; S. pombe RE007 Vpr strain, BacTiter-Glo ATP luminescence, 24 h; control for the full effect not named in the record; Potency, µM (doses to about 92.2 µM), without a hit: at the highest dose activity change, negative = less growth; 0.21% of 360,000 active; active = well fitted falling curve with a large enough effect; inconclusive = small, poorly fitted or top-dose-only effect; inactive = no such curve, though single readings can be large or run the other way;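 also: % is scaled to controls: 0 for no effect and ±100 for the full control effect; nearly all actives have a fitted effect of over 50% in size; the assay follows cell death caused by Vpr and the record does not say whether a fall means rescue or toxicity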
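Fission yeast RE007 carrying one integrated HIV-1 vpr copy, seeded at OD 0.01 in PMG+AL medium with 23 nL pinned compound. Grown 24 h at 30 degrees; viability read by BacTiter-Glo luminescence after 5 min.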
SARS PLpro yeast – qHTS of Yeast-based Assay for SARS-CoV PLP; S. cerevisiae expressing SARS-CoV PLpro, growth rescue; control for the full effect not named in the record; Potency, µM (titrated, usually from 32.9 µM), for inactives: at the highest dose activity, positive = growth rescue; 0.19% of 330,000 active; AID 485353, 2010; also: 0% is about no effect; nearly all actives have a fitted effect of over 55% in size; growth read by luminescence after 48 h
MARV entry inh – qHTS for inhibitors of binding or entry into cells for Marburg Virus | Marburg virus pseudotyped entry inhibition, cell reporter; control for the full effect not named in the record; about a third of the inactives were read at about 46 µM | Potency, µM (top dose mostly 37.8 µM), inactives show at the top dose activity change, negative = inhibition, usual class: inhibitors | 1.8% of 300,000 active; active = well fitted inhibition curve with a large enough effect; inconclusive = small, poorly fitted or top-dose-only effect, or effect the other way; inactive = flat fitted curve, though single readings scatter; tested in HEK293 cells; about a fifth of its hits are not listed in these tables; also: % is scaled to controls: 0 for no effect and ±100 for the full control effect; luciferase read-out
The depositor's hits bear a star; ? = inconclusive; . = no result given; & = joins results of further samples; [ ] = remark or other dose. Unless noted, calls follow the shape of the dose curve; as a rule, active means well fitted rising curve with a large enough effect; inconclusive means small, poorly fitted or top-dose-only effect; inactive means no such curve, though single readings can be large or run the other way. Potency is read from the fitted curve at half-maximal effect.

SMILES	2A StopGo	NS1 function inh	LASV entry inh	Cruzain inh Det	Cruzain noTriton	RE007 growth inh	SARS PLpro yeast	MARV entry inh
CCCCn1c(-c2cccc(Br)c2)nc2cc3[nH]c(=O)c(C(C)C)nc3cc21	?	27%	.	.	.	13%	-6%	.
CCc1ccccc1Nc1ncnc2c1cnn2-c1ccc(Cl)cc1	-2%	.	18%[46.1 µM]	-8.4%	7%	.	.	.
Cc1cc(NCc2ccccc2)nc2ccccc12	6%	-1%	-6%	-13%	-20%	-5%	-14%	?
CC(=O)Nc1ccc2c(c1)N(C(C)=O)c1ccccc1CC2	-27%	6%	14%	.	.	15%	0%	2%[46.1 µM]
Cc1nc2c(C(=O)NCCC(C)C)cnn2c(C)c1Cc1c(F)cccc1Cl	-17%	.	21%[46.1 µM]	0.3%	-4%	.	.	.
c1ccc2c(c1)ncn2CCCOc1ccc2c(c1)CCC2	-2%	-93%	?	-14%	?	-25%	2%	?
COC(=O)c1c(NC(=O)CSc2nnc(-c3cccnc3)n2Cc2ccco2)sc(C)c1C	-19%	-3%	-6%	-8.9%	?	17%	-7%	-1%&-25%
O=C1CN(C(=O)c2ccccc2F)c2ccccc2N1	.	1%	6%	4.3%	6%	2%	0%	0%
CC(=O)c1ccc(NC(=O)CSc2cn(CC(=O)N(C(C)C)C(C)C)c3ccccc23)cc1	1%	.	0%[46.1 µM]	-5.2%	8%	.	.	.
CCOc1ccc(S(=O)(=O)N(C)c2ccc(OCC(=O)NCc3ccco3)cc2)cc1	-25%	-52%	?	0.7%	13%	21%	3%	?
Cc1cc(C)c(NC(=O)c2cc(S(=O)(=O)N3CCN(c4ccccc4F)CC3)ccc2F)c(C)c1	0%	.	3%[46.1 µM]	0.7%	-29%	.	.	.
COc1cccc(C2c3[nH]c4ccccc4c3C[C@H]3C(=O)N(c4ccccc4C(=O)N4CCCC4C(=O)O)C(=O)N23)c1 (stereo not given in full)	-14%	?	.	.	.	6%	9%	.
O=C(Cn1cnc2ccccc2c1=O)Nc1ccc2c(c1)CCC2	-4%	-10%	-5%	-2.2%	3%	20%	1%	?
COC(=O)c1ccc(Oc2nc(Nc3ccc(C)c(C)c3)nc(N(C)C)n2)cc1	?	14%	-5%	-1.4%	1%	?	-10%	15%
Cc1c(C#N)c(NC(=O)C(C)C)n(Cc2ccccc2)c1C	3%	3%	-12%[46.1 µM]	.	.	-3%	0%	21%[46.1 µM]
O=C(NCc1ccc2c(c1)CCN2C(=O)c1ccc(F)cc1)c1ccco1	-4%	.	?	0.9%	12%	.	.	.
O=C(Cc1ccccc1[N+](=O)[O-])NCCCN1CCOCC1	13%	0%	13%	.	.	-9%	8%	-1%[46.1 µM]
CCc1ccc2oc(=O)cc(CN3CCN(Cc4ccccc4)CC3)c2c1	-21%	5%	.	.	.	-21%	-2%	.
Cc1ccc(NC(=O)c2cc(S(=O)(=O)N3CCOCC3)cn2C)cc1Cl	0%	18%	.	.	.	-17%	0%	.
Cc1ccc(S(=O)(=O)N2CCN(C(=O)Cc3sc(C)nc3-c3ccc(F)cc3)CC2)c(C)c1	-22%	.	?	.	.	-30%	-8%	?
COc1ccc(-n2cc(C(=O)O)c3ccccc3c2=O)cc1	7%	-2%	6%	-3.8%	-3%	1%	2%	-8%
O=C(c1cc2c(s1)-c1ccccc1OC2)N1CCN(c2ccccn2)CC1	-20%	-70%	.	-4.8%	3%	0%	0%	.
COc1ccccc1OC(=O)c1ccc(S(=O)(=O)N(C)C)cc1	-1%	-58%	6%	-3.7%	6%	2%	-10%	9%
CCOc1ccc(-n2ccnc(SCC(=O)NCc3cccc(OC)c3)c2=O)cc1	9%	.	12%	.	.	2%	7%	-52%
Cc1cc2cc(CN(Cc3ccc4c(c3)OCO4)C(=O)c3cnccn3)c3nnnn3c2cc1C	-8%	?	-11%	-1.5%	?	11%	4%	-4%&-4%
Cn1c(=O)c2ccccc2n2c(=S)[nH]nc12	-3%	0%	.	.	.	0%	3%	6%[46.1 µM]
CCc1cccc(NC(=O)CCCN2C(=O)NC(C)(C)C2=O)c1	0%	.	?	.	.	-2%	-1%	9%
Cc1ccc(OCc2nnc(SCC(N)=O)n2N)cc1	-6%	7%	.	.	.	4%	0%	.
c1ccc(Nc2nc(-c3ccccn3)cs2)cc1	32%[activator]	-179%	?	-6.2%	2%	?	.	?
CN(C)c1cc(-c2ccc(Br)cc2)oc(=O)c1Cl	7%	-4%	?	.	.	7%	-2%	?
O=C(Nc1ccc2nc(-c3cccnc3)[nH]c2c1)C12CC3CC(CC(C3)C1)C2	-1%	3%	-24%	-2.8%	?	-7%	2%	?
CCCn1[nH]cc(SC)c(=O)c1=O	-4%	-57%	-12%	-0.6%	-2%	5%	12%	-1%
Cc1csc(NC(=O)/C=C/c2ccco2)n1	47%[activator]	7%	?	-11%	-3%	4%	18%	?
O=C(Nc1sc2c(c1C(=O)NC1CCCCC1)CCC2)c1ccco1	-14%	-44%	-16%	-3.9%	-9%	3%	.	0%
O=C(CCS(=O)(=O)c1cccc2nonc12)NCCc1ccccc1	9%	-2%	16%	0.3%	2%	11%	-2%	?
COc1ccccc1NC(=O)c1ccc([N+](=O)[O-])cc1[N+](=O)[O-]	3%	.	5%	.	.	-8%	6%	-27%[46.1 µM]
CCOC(=O)C1CCN(Cc2cc(=O)oc3c(C)c(C)ccc23)CC1	-5%	-4%	.	.	.	-3%	-2%	.
CCOc1ccccc1C1CC(c2ccccc2)Nc2nc(N)nn21 (stereo not given)	0%	2%	.	3.4%	-17%	0%	-2%	.
CC(N)=NCCCC(N)C(=O)O (stereo not given)	.	-5%	.	-8.3%	-6%	.	.	2%
COc1ccccc1N1C(=O)C2C3C=CC(CC3)C2C1=O (stereo not given)	-1%	8%	-11%[46.1 µM]	.	.	0%	4%	3%[46.1 µM]
O=C(CSc1nnc2scc(-c3ccccc3)n12)N1CCCc2ccccc21	-10%	-14%	10%	-7.0%	-1%	-4%	3%	-7%
COC(=O)COc1coc(CN2CCN(c3cccc(Cl)c3)CC2)cc1=O	4%	-7%	3%[46.1 µM]	.	.	23%	2%	25%[46.1 µM]
O=c1[nH]cnc2sc3c(c12)CN(Cc1ccccc1)CC3	0%	2%	-17%	.	.	-14%	1%	4%
CCCCNC(=S)NNC(=O)c1csc2c1CCC(C)C2 (stereo not given)	88%[activator]	19%	-1%	-8.7%	6%	5%	0%	?
Cc1ccc(-c2nc(CSCC(=O)NCc3cccnc3)c(C)o2)cc1	?	-8%	-11%	4.2%	-5%	17%	5%	?
N=C(N)SCc1ccc(Cl)cc1Cl	?	8%	?	-2.0%	-12%	6%	9%	?
NS(=O)(=O)c1ccc(CCNC(=O)CN2CCCCCC2)cc1	-8%	-1%	.	.	.	1%	-4%	.
COCc1nnc(SCC(=O)NCc2ccccc2)n1-c1ccccc1	.	-5%	-1%	1.5%	5%	13%	0%	18%
N#Cc1cc2c(nc1SCC(=O)Nc1ccc(Cl)cc1)C1CCN2CC1	-16%	11%	-8%	0.9%	-11%	1%	?	0%
COCCCNC(=O)CN(CCc1ccccc1)S(=O)(=O)c1ccc(OC)cc1	17%	-11%	-13%	.	.	5%	0%	-3%[46.1 µM]
O=C(N/C=C/n1cnc2cc(C(F)(F)F)ccc21)c1ccccc1	1%	4%	17%	.	.	21%	-6%	24%[46.1 µM]
COC(=O)c1ccccc1NC(=O)c1nc(SCc2ccccc2C)ncc1Cl	-15%	.	12%[46.1 µM]	1.2%	3%	.	.	4%[46.1 µM]
S=C(NCc1ccccc1)Nc1ccc2ccccc2c1	54%[activator]	14%	15%[46.1 µM]	.	.	4%	7%	?
CCCCCCn1c(CN2CCN(C(=O)OCC)CC2)nc2c1c(=O)n(C)c(=O)n2C	-22%	.	-10%	.	.	3%	.	-19%
CCOc1ccc(-c2ccc(SCC(=O)Nc3nnc(C)s3)nn2)cc1	0%	.	?	.	.	13%	0%	-17%[46.1 µM]
CCN(CCCNC(=O)C1c2ccccc2C(=O)N(CCOC)C1c1ccc(F)cc1)Cc1ccccc1 (stereo not given)	-13%	.	1%	.	.	-5%	7%	?
C/C(=N\Nc1ncc(Br)cn1)c1cccc([N+](=O)[O-])c1	25%	-33%	.	.	.	-11%	-9%	.
Cc1c(C(=O)O)oc2ccc(S(=O)(=O)NCCC3=CCCCC3)cc12	81%[activator]	10µM*	-9%	-2.4%	-18%	-4%	7%	-4%
O=C(C1=C[C@H](c2ccc3c(c2)OCO3)C[C@H](OCc2ccc(CO)cc2)O1)N1CCCCCCC1	49%[activator]	-2%	.	.	.	10%	-1%	.
CCCCC(CC)CNC(=O)c1ccc2c(=O)n(CCOC)c(=O)[nH]c2c1 (stereo not given)	?	.	?	4.8%	3%	.	.	2.8µM*
Other structures
SMILES	2A StopGo	NS1 function inh	LASV entry inh	Cruzain inh Det	Cruzain noTriton	RE007 growth inh	SARS PLpro yeast	MARV entry inh
N#CCN(C(=O)COC(=O)CCCNC(=O)c1ccc(Cl)cc1)c1ccccc1	-8%	.	-1%	.	.	-1%	4%	?
Clc1cccc(NCc2nnc3n2CCCCC3)c1	7%	.	-7%[46.1 µM]	.	.	12%	0%	3%[46.1 µM]
O=C1CN=C(c2ccccc2)c2c(sc3c2CCCC3)N1	-13%	-6%	.	.	.	6%[18.4 µM]	-7%	.
CSCCC(NS(=O)(=O)c1c(Cl)cccc1Cl)C(=O)O (stereo not given)	-6%	-2%	11%[46.1 µM]	.	.	15%	-3%	?
COCCn1c(N)c(N(Cc2ccccc2)C(=O)C2CCCC2)c(=O)[nH]c1=O	2%	.	19%	.	.	17%	3%	?
Cc1c(C(=O)NCc2cccnc2)oc2ccc(S(=O)(=O)N3CCCCC3)cc12	?	-15%	-5%	-3.1%	0%	7%	7%	-7%
O=c1c2ccccc2nc(/C=C/c2ccccc2)n1-c1ccccc1O	-14%	-17%	?	.	.	2%	-8%	?
